# Source: PubChem BioAssay
# Sfp PPTase inh: qHTS Assay for Inhibitors of Bacillus subtilis Sfp phosphopantetheinyl transferase (PPTase) | Biochemical Sfp PPTase activity, qHTS | Potency, µM, for the others: max response, negative = inhibition, hits mostly inhibitors | hit rate 3.5% among 310,000 | 4'-phosphopantetheinyl transferase ffp (Bacillus subtilis), Q9F4F7 | AID 1490, 2009; active = well fitted inhibition curve with a large enough effect; inconclusive = small, poorly fitted or top-dose-only effect, or another doubt; inactive = no such curve, though single readings can be large or run the other way;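 note: the enzyme is Sfp with the accession as filed and its product quenches rhodamine fluorescence; potency is the fitted concentration of half-maximal effect; 0% = enzyme reaction without inhibitor and -100% = no enzyme wells; top concentration of the series not given in the record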
#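 Fluorescence-quenching assay: 15 nM Sfp-PPTase preincubated 15 min at room temperature with compound, then 5 uM rhodamine-CoA and 12.5 uM BHQ-2-labelled YbbR peptide added. Fluorescence (ex 525/em 598 nm) read at start and after 30 min; difference gives rate.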
# TRPV1 PAM: HTS Assay for Compounds that Act as Potentiators of the Vanilloid Receptor 1. AID 540277, 2011. TRPV1-expressing cells, Fluo-8 calcium influx, capsaicin EC20 potentiation; host cell line not named in the record; control for the full effect not named in the record. hit rate 0.02% among 320,000. potentiation, % at 8.33 µM; active means potentiation above 80%; inconclusive means 30% to 80%; inactive means below 30%; note: 0% is about no effect
# Target sequence (Q8NER1 whole entry, looked up): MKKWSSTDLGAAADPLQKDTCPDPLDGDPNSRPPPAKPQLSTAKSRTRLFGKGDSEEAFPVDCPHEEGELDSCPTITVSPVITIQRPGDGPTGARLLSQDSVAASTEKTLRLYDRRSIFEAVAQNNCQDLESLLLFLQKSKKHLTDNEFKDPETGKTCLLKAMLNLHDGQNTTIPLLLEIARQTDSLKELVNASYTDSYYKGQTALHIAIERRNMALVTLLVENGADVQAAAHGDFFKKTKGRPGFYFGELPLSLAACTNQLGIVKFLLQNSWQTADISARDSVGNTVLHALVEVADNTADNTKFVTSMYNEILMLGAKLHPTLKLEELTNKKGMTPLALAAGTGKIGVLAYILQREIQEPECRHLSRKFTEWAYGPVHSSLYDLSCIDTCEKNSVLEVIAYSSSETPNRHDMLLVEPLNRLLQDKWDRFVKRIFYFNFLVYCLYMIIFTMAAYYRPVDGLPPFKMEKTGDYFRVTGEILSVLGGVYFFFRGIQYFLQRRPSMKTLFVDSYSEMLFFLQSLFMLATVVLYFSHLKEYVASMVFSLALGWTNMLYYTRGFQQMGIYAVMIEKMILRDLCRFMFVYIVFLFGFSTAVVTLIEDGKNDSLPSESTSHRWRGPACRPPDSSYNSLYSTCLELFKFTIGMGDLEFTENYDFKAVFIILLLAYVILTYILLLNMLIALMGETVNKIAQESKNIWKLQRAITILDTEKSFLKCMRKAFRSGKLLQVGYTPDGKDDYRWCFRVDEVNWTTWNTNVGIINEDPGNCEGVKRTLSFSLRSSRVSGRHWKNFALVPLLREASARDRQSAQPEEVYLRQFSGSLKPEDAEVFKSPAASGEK
#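 TRPV1-expressing cells were cultured overnight at 35.5C and loaded with Fluo-8 calcium dye for 40 to 90 min at room temperature. After a 10 s baseline, compound was added and calcium influx was read kinetically for 3 min (ex 480/em 520 nm).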
# ClpP mod: qHTS Assay for Activators of ClpP; Potency, µM (top dose mostly 57.5 µM), for the others: at the top dose activity change, negative = active; purified B. subtilis ClpP, FRET peptide cleavage, 20 min; hit rate 1.9% among 340,000; AID 651965, 2013; ATP-dependent Clp protease proteolytic subunit (Bacillus subtilis (strain 168)), P80244; active = well fitted falling curve with a large enough effect; inconclusive = small, poorly fitted or top-dose-only effect; inactive = no such curve, though single readings can be large or run the other way; note: potency is the fitted concentration of half-maximal effect; the source files actives as falling curves though it sought activators and does not explain the sign; nearly all actives have a fitted effect of over 65% in size; many hits overshoot -100%
# Target sequence (P80244 whole entry, looked up): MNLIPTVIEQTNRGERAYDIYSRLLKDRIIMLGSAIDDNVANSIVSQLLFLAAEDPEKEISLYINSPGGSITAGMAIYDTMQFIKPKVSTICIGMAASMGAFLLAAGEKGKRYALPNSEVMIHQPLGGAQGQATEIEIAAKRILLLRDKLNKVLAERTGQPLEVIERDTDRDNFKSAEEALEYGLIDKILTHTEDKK
#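 Purified B. subtilis ClpP, 10 microg/mL final in Tris/HCl pH8 with KCl, BSA, glycerol and Tween-20, cleaved an Abz/nitrotyrosine-quenched decapeptide. Fluorescence (ex 320, em 430) was read at 0 and 20 min at room temperature. Delta was normalized to 5.8 microM ADEP and DMSO/no-enzyme controls.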
# Menin MLL FP FL: qHTS Assay for Inhibitors Targeting the Menin-MLL Interaction in MLL Related Leukemias: Competition With Fluorescein Labeled MLL-derived Peptide; Fluorescence polarization, fluorescein-MLL peptide displacement from menin; 290,000 tested, under 10 active; AID 1766, 2009; FP activity change, % at 61.4 µM; inconclusive = falling polarisation curve, or a change in total fluorescence; inactive = total fluorescence flat and polarisation flat or rising; no compound was filed as active; the % refers to the polarisation; negative = inhibition;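 note: % of control where 0% means no effect; inhibitors lower the polarisation; unlabelled MLL peptide was the positive control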
# PINK1 modulator: A Quantitative High throughput Screen to Identify Chemical Modulators of PINK1 Expression. PINK1 immunofluorescence, high-content cytometry, 24 h. Potency, µM (highest dose often 76.6 µM), for the others: at the top dose activation (PINK1 increase), most hits filed as activators. hit rate 0.2% among 410,000. AID 624263, 2012; active = well fitted activation curve with a large enough effect; inconclusive = small, poorly fitted or top-dose-only effect; inactive = flat fitted curve, though single readings scatter; cell line not stated here;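 note: potency is the fitted concentration of half-maximal effect; % of control where 0% means no effect; nearly all actives have a fitted effect of over 65% in size; a mitochondrial uncoupler was the plate control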
#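 Stable cell line treated 24 h with compounds at 5 concentrations (CCCP controls), then fixed and immunostained for PINK1 plus nuclear and cell stains; PINK1 immunofluorescence quantified by laser-scanning microplate cytometry.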
# TRPML1 inh: qHTS for Inhibitors of the Human Mucolipin Transient Receptor Potential 1 (TRPML1); Mucolipin-1 (Homo sapiens), Q9GZU1; TRPML1-inducible cells, Ca2+ dye fluorescence, FDSS; stronger effect = lower value; inhibition of EC80 agonist-evoked calcium signal; activity change, negative = inhibition, % (no concentration beside the values); hit rate 0.02% among 390,000; AID 624415, 2012; in the data active means activity change below about -50%; inconclusive means about -30% to -50%; inactive means above about -30%;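 note: stimulus is agonist 54-4 at its EC80 concentration; % is set by controls: 0 for no effect and ±100 for the full control effect; compound concentration not given in the record; the text of the record puts the active cut at -80%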
#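 TRPML1-DL cells, Tet-induced overnight (~16 h, 37 °C) at 1,500 cells/well, were loaded with Ca8 no-wash dye plus quencher for 45-90 min at room temperature. Compounds were pinned during FDSS kinetic reading; agonist 54-4 at EC80 (4 uM final) then added.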
# TRPML1 ag: qHTS for Agonists of the Human Mucolipin Transient Receptor Potential 1 (TRPML1) | TRPML1-expressing cells, Ca2+ dye fluorescence, FDSS; host cell line not named in the record; reference of the full effect not given here | Mucolipin-1 (Homo sapiens), Q9GZU1 | hit rate 0.12% among 410,000 | AID 624414, 2012 | activation, % (no concentration beside the values); in the data active = activation above about 50%; inconclusive = about 30% to 50%; inactive = below about 30%; note: 0% is about no effect; the text of the record puts the active cut at 80%
#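 In this qHTS format, compounds were pin-transferred onto Ca8-dye-loaded TRPML1-DL cells induced with Tet overnight, and intracellular Ca2+ fluorescence was recorded kinetically for 110 s after a 10 s baseline. A subsequent 4uM final 54-4 (EC80) addition followed by a second 110 s read served as the antagonist phase.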
# The depositor's hits bear a star; ? = inconclusive; / = no result given; [ ] = another dose, or the depositor's remark. An unsorted share of the library, and some 4.4% of all compounds hit somewhere here.
SMILES,Sfp PPTase inh,TRPV1 PAM,ClpP mod,Menin MLL FP FL,PINK1 modulator,TRPML1 inh,TRPML1 ag
C/C(=N\NC(=O)c1cccc(S(=O)(=O)N2CCOCC2)c1)c1ccc(OC(F)F)cc1,/,-20,1.3%,/,5.2%,2,-0.1
Cc1ccc(C2C(C#N)=C(N)Oc3n[nH]c(C)c32)cc1 (stereo not given),2%,-8,1.2%,-1.4,2.3%,-3,-1.4
COC(=O)c1cc(NC(=O)c2ccoc2C)cc(C(=O)OC)c1,8%,-19,-2.2%,-2.0,5.0%,-1,-0.8
Cc1ccc(CNC(=O)CCS(=O)(=O)c2ccc3c(c2)NC(=O)CS3)cc1,21%,4,-0.2%,/,-1.4%,18,0.5
CC(=O)c1cccc(Nc2ncnc3c2cnn3-c2cccc(Cl)c2)c1,/,/,0.7%,/,1.4%,15,0.2
CC(C)(C)c1ccc(OCC(=O)N(c2ccccn2)C2CCCCC2)cc1,2%,-22,-1.5%,0.0,16%,0,23
CN1CCCN(Cc2nc(-c3cccc(C(F)(F)F)c3)no2)CC1,3%,1,/,-6.0,-0.2%,-4,-0.1
Nc1nc2ccc([N+](=O)[O-])c(N)c2s1,89µM*,/,-2.9%,2.0,-2.9%,11,1.3
CCOc1cc(C(=S)N2CCN(C)CC2)ccc1OCC(=O)N1CCOCC1,6%,-5,-2.6%,-1.8,0.1%,1,0.0
CC(C)CC(=O)Nc1ccnn1C1CCN(C(=O)c2ccccc2F)CC1,/,/,-0.6%,/,-0.4%,29,-0.1
COc1ccc(CCN2CC(C(=O)NCCCn3nc(C)cc3C)CCC2=O)cc1 (stereo not given),5%,10,-4.9%,/,0.4%,-4,0.5
CN(c1ccc(C(=O)Nc2ccc3c(c2)OCO3)cc1)S(C)(=O)=O,6%,-18,0.1%,7.6,2.0%,7,-0.9
CCOC(=O)c1c(NC(=O)CCC(=O)O)sc2c1CCCCC2,?,3,-13%,-1.3,-1.9%,22,1.5
CC(NC(=O)c1cccc(S(=O)(=O)N(C)c2ccccc2)c1)c1cccnc1 (stereo not given),/,/,-3.5%,/,0.1%,24,-0.2
CCOC(=O)c1ccc(NC(=O)CCc2nc(-c3ccc(C)cc3)no2)cc1,?,?,-1.6%,2.2,7.0%[38.3 µM],-1,1.2
Cc1sc(NC(=O)/C=C/c2ccc3c(c2)OCO3)nc1-c1ccccc1,6%,-3,-17%,2.5,4.1%,5,-0.7
CCOC(=O)c1ccc(NC(=O)c2c(NCc3ccccc3)[nH]c(=O)[nH]c2=O)cc1,/,/,34%,/,0.7%,17,-0.7
C[C@@H](NC(=O)c1ncn2c1c(=O)[nH]c1ccc(Br)cc12)c1ccccc1,/,/,-8.4%,/,2.6%,-17,-0.2
COc1ccc([C@H]2CC(=O)C=C(c3cccc(OC)c3OC)C2)cc1OC,/,-18,1.3%,/,3.1%,-6,-0.4
O=C(Cn1nc(C(=O)O)c2ccccc2c1=O)Nc1cccc(S(=O)(=O)N2CCCCCC2)c1,/,/,-2.5%,/,3.9%,32,4.8
O=C(CNC(=O)c1ccncc1)N/N=C/c1ccc(Br)cc1,14%,-3,0.6%,0.7,-0.8%,2,0.6
O=C(c1ccncc1)N1CCN(S(=O)(=O)c2ccc(F)cc2)CC1,20%,7,-2.3%,/,1.1%,-1,1.1
O=C(c1ccc2c(c1)OCO2)N1CCN(c2ccccc2F)CC1,10%,-11,-0.6%,1.5,2.0%,-5,-0.5
COC(=O)c1cccc(NC(=O)Cn2cnc3ccccc3c2=O)c1,8%,-22,-0.8%,-0.7,5.5%[38.3 µM],14,1.9
CC(C)[C@H](NC(=O)N1CCn2c1nc1ccccc12)C(=O)N[C@H](Cc1ccccc1)C(=O)O,22%,1,0.8%,-0.2,0.1%,/,/
# Next section
SMILES,Sfp PPTase inh,TRPV1 PAM,ClpP mod,Menin MLL FP FL,PINK1 modulator,TRPML1 inh,TRPML1 ag
CC(C)c1ccc(N(C(=O)C(F)(F)F)C(C(=O)NC2CCCCC2)c2ccncc2)cc1 (stereo not given),13%,9,-7.6%,-0.7,/,-1,0.2
COc1cccc(/C=C/C(=O)c2ccc(NS(=O)(=O)c3ccc(C)cc3)cc2)c1,4%,15,-5.1%,5.9,-0.2%,-12,1.4
COc1ccc(/C=N/NC(=O)c2nnn(-c3nonc3N)c2CN(C)c2ccccc2)cc1,13%,-4,-1.7%,3.5,1.6%,0,-0.7
CC(=O)NC(=S)Nc1cc(C(F)(F)F)ccc1N1CCOCC1,0%,7,2.2%,6.2,1.3%,3,0.1
CC1=C(C(=O)N(C)C)CC(CC(=O)NC2CCCCC2)C(=O)N1CCCN1CCCC1=O (stereo not given),/,/,-0.7%,/,-0.6%,-15,-0.4
Cc1ccc(OCCn2ccnc2)c(C)c1,9%,5,0.6%,-1.8,1.7%,-9,-0.1
COc1ccc(N(C(=O)c2ccc(OC)c(OC)c2)S(=O)(=O)c2ccc(Cl)cc2)cc1,/,/,-2.6%,/,3.4%,-10,0.6
CCCc1nc2oc3c(OC)ncnc3c2c2c1COC(C)(C)C2,16%,-14,-1.3%,-8.5,?,7,-0.2
COc1cc2ccccc2cc1C(=O)Nc1cccc(-c2nc3ccccc3o2)c1,/,/,3.8%,/,1.0%,8,2.9
CCCCOc1ccc(C(=O)NCc2ccncc2)cc1,0%,-11,-0.3%,1.2,-2.3%[38.3 µM],19,-0.3
Cc1ccn2cc(CCNC(=O)CC(C)(C)C)nc2c1,11%,6,?,-1.0,5.1%,17,-0.8
CC(C)(C)NC(=O)C(c1ccncc1)N(CC1CCCO1)C(=O)Cn1nnc(-c2ccc(F)cc2)n1 (stereo not given),20%,-2,/,-1.2,-1.4%,18,0.4
CCOc1ccc(C(=O)NCC(=O)OCC(=O)N(C)CC(=O)Nc2ccccc2CC)cc1OCC,/,/,-8.4%,/,-0.2%,-22,2.1
COc1ccc(N2CC(C(=O)N[C@@H](CC(C)C)C(=O)NC3CCCC3)CC2=O)cc1 (stereo not given in full),9%,11,/,/,-0.7%,16,-0.6
CC(=O)Nc1ccc(S(=O)(=O)NCCC(=O)NC2CCCCCC2)cc1,/,2,-2.8%,/,0.0%,37,-0.5
Cc1cccc(C2=NN(c3ccccc3)[C@H](CO)[C@H]2c2ccc(Cl)cc2)c1,27%,/,4.9%,1.0,?,15,-0.4
CCN(Cc1ccccc1OC)CC1CCCN(CCc2cccc(OC)c2)C1 (stereo not given),14%,5,0.8%,-5.4,0.9%,-4,-0.4
O=c1c2sccc2n(Cc2cc(=O)n3cc(Cl)ccc3n2)c(=O)n1-c1ccccc1,/,/,3.8%,/,1.3%,18,1.4
CC(=O)OC(C(=O)NCS(=O)(=O)c1ccc(C)cc1)c1cccnc1 (stereo not given),15%,3,0.2%,3.4,-0.5%,-10,-0.1
CC12CCC3(CC1CCC1OC12)OCCO3 (stereo not given),/,/,-4.7%,/,-2.8%,-6,-0.2
COc1ccc(F)cc1S(=O)(=O)NCCc1csc(-c2ccc(Cl)cc2)n1,/,/,-20%,/,4.0%,0,0.7
COCCCn1c(SCc2nnc(-c3ccccc3)o2)nc2sc3c(c2c1=O)CCC3,-11%,6,-0.1%,2.6,-1.0%,-2,0.4
O=C(O)C1CC(=O)N(c2ccc(Br)cc2)C1 (stereo not given),-9%,14,1.7%,4.5,0.5%,11,-0.3
Cc1cc(Nc2ccccc2F)n2nc(Cc3ccc(Cl)cc3)nc2n1,/,/,-1.3%,/,1.9%,10,0.5
Cc1c(-c2nsc(NC(=O)c3cccs3)n2)nnn1-c1ccc(F)cc1,/,/,-22%,/,6.5%,7,-0.1
# (more compounds)
SMILES,Sfp PPTase inh,TRPV1 PAM,ClpP mod,Menin MLL FP FL,PINK1 modulator,TRPML1 inh,TRPML1 ag
CCN(CC)c1ccc(N2C(=O)/C(=C\c3cccnc3)SC2=S)cc1,13%,-5,2.0%,5.8,11%,-20,-0.6
CC[C@@H](C(=O)n1nc(C)cc1C)[C@H](NS(=O)(=O)c1ccc(C)cc1)c1ccccc1,14%,-7,1.1%,-2.8,0.2%,-9,19
Cc1ccccc1C(=O)c1c[nH]c(C(=O)NCCCn2ccnc2)c1,8%,-1,-1.7%,0.2,-0.6%,-9,-0.7
CCCCNC(=O)NNC(=O)COc1cccc(C)c1C,7%,-2,-1.2%,9.6,1.5%,-7,-0.4
COC(=O)c1c(NC(=O)COC(=O)CNC(=O)c2cccc(OC(F)F)c2)sc(C)c1C,/,/,36%,/,-0.4%,-9,0.1
Cc1cc2cc(CNC(=O)c3cccc([N+](=O)[O-])c3)ccc2[nH]1,-9%,6,3.3%,-4.5,2.7%,9,0.2
Cc1ccc(-n2nnnc2SCn2nnc3ccccc3c2=O)cc1,-10%,4,1.0%,1.6,1.3%,77,0.5
CCn1c(CN2CCOCC2)nnc1SCC(=O)Nc1ccc(C(C)=O)cc1,15%,2,-1.1%,/,0.9%,-20,-0.2
COc1ccc(C2C(=O)N(C3CCCCC3)CC(=O)N2CCc2ccccc2)cc1OC (stereo not given),14%,-19,-1.1%,-1.1,3.4%[38.3 µM],-9,-0.2
CC1(C)Cc2nc3sc(C(N)=O)c(N)c3cc2CO1,2%,-20,-2.2%,0.3,-0.7%,/,/
COCCn1nnnc1C(c1cccs1)N1CCN(c2ccccc2)CC1 (stereo not given),12%,-4,-0.6%,1.4,/,-17,-0.1
Cc1ccccc1N1CC2=C(C1=O)C(c1ccccc1)NC(=O)N2C (stereo not given),5%,-17,0.3%,5.8,0.2%,-7,-0.4
COC(=O)c1c(N2C(=O)Nc3ccccc3N2O)sc2c1CCCC2,5%,4,2.3%,4.6,0.4%,17,-0.1
